# HCMV NEC inh – inhibitors of HCMV UL50-UL53 interaction, biochemical, HTRF; AID 1918969, 2023; 0.15% of 190,000 active; HCMV UL50-UL53 nuclear egress complex (human cytomegalovirus); inhibition, % (concentration not given with the values); normalized percent inhibition;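 active means both replicates at 50% or more, plus weaker picks with an unusually low signal ratio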;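 further: stock transfer was 100 nL into about 20 µL; 0% = negative control wells and 100% = wells with untagged competitor protein; inactives centre near -12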
# GIV-Gai inh – inhibitors of GIV peptide binding to Galpha-i3, primary screen, biochemical, fluorescence polarization, FITC-GIV GBA peptide, rat Galphai3. 0.42% of 210,000 active. 90 min; active compounds read low; scaled: aluminum fluoride 0%, vehicle 100%. percent of control (FP), % (test concentration not listed);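 active means replicate mean at 85% of control or lower, very high polarization wells dropped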;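 further: lower values mean more displacement of the GIV peptide from Galpha-i3; wells of about 15 µL received 100 nL stock; the first replicate is given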
# Target sequence (P08753 whole entry, looked up): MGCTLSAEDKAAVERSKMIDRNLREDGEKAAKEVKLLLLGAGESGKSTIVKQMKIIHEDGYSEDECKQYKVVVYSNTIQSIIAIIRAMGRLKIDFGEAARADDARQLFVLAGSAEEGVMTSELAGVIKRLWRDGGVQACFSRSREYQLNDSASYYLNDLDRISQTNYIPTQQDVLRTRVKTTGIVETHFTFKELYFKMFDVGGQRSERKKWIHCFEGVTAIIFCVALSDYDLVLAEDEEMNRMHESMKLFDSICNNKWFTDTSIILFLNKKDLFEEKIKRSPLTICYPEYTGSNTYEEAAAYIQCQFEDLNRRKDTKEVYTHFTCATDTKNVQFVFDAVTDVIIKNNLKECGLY
# Sa growth 42C – S. aureus growth inhibition at 42 and 30 °C, primary screen, LtaS inhibitor project, RN4220, two temperatures | OD600, 20 h, 42 °C; active compounds read low | relative growth, % (test concentration not listed) | 0.53% of 170,000 active | AID 720641, 2013;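 active means growth at 42 °C up to 50% and 20 or more points under that at 30 °C, or under 10% at both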;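 further: 300 nL library stock went into each well; scaled to the means of positive and negative controls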
# Sa growth 42C second temp – recorded beside Sa growth 42C, whose call it bears; relative growth, %; measured here: growth at 30 °C;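 optical density after 20 h as mean of two plates; 100% = untreated growth and lower means inhibition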
# Starred values were filed as active, the others as inactive; x = not tested or not shown; & = joins results of further samples.
[1] COC(=O)C1SC(C)SCC1=O (stereo not given)
[2] COc1cc(C2C(C(=O)Nc3ccccn3)=C(C)Nc3nnnn32)ccc1OCc1ccccc1 (stereo not given)
[3] CC(=O)Nc1nonc1-c1nnc(SCC(=O)Nc2ccccc2Cl)n1C
[4] Cc1cccc(NC(=O)c2ccccc2Cl)c1
[5] Nc1nc2n(n1)C(c1cccs1)CC(c1ccc(Cl)cc1Cl)N2 (stereo not given)
[6] Cc1ccc(-c2nnc(Nc3ccc(O)cc3)c3ccccc23)cc1S(=O)(=O)N1CCCCC1
assay / entry,1,2,3,4,5,6
HCMV NEC inh,-20,7,-14,-6,-14,-9
Sa growth 42C,95,x,100,108,95,99
Sa growth 42C second temp,92,x,88,97,69,92
GIV-Gai inh,103,109,99,97,100,101

[7] CN(C)C=C1C(=O)CC(c2ccc(Cl)cc2)CC1=O (stereo not given)
[8] CCN=C1S/C(=C\c2ccc(-c3ccc(Cl)c([N+](=O)[O-])c3)o2)C(=O)N1CC
[9] N#Cc1cccnc1NNC(=O)CCC(=O)O
[10] CCN1C(=O)C2(c3ccccc31)c1c(oc3ccccc3c1=O)C(=O)N2CC1CCCO1 (stereo not given)
[11] Cc1cc(C)cc(NC(=O)Nc2cc(Cl)ccc2OCc2cc(=O)n3c(ncn3C(C)C)n2)c1
[12] CS(=O)(=O)Nc1ccc(C(=O)N2CC(=O)Nc3ccccc32)cc1
assay / entry,7,8,9,10,11,12
HCMV NEC inh,-1,-28,26,-26,11,19
Sa growth 42C,88,x,111,98,x,87
Sa growth 42C second temp,89,x,101,82,x,101
GIV-Gai inh,108,111,108,101,98,101

[13] CN(C(=O)c1ccccc1)c1ccc(C(O)(C(F)(F)F)C(F)(F)F)cc1
[14] Cc1noc2ncnc(N3CCCC(C(=O)Nc4ccc5c(c4)OCO5)C3)c12 (stereo not given)
[15] Cn1c(=O)c(-c2nc(C(C)(C)C)cs2)cn(-c2ccccc2)c1=O
[16] CCn1cc(C(=O)NCCc2ccccc2)c(=O)c2cc(S(=O)(=O)N3CCC(C)CC3)ccc21
[17] Cc1ccc(S(=O)(=O)c2nc(S(C)(=O)=O)sc2NC2CCS(=O)(=O)C2)cc1 (stereo not given)
[18] Cc1ccc(/C=C2\C(=O)Nc3ccc(Br)cc32)o1
assay / entry,13,14,15,16,17,18
HCMV NEC inh,x,-7,-43,x,-9,-6
Sa growth 42C,75,105,93,116,79,96
Sa growth 42C second temp,55,88,82,97,85,68
GIV-Gai inh,98,109,102,105,x,115

[19] CN1CCN(S(=O)(=O)c2ccc(Oc3ccc(Oc4ccccc4)cc3)nc2)CC1
[20] c1coc(C2Nc3cccc4cccc(c34)N2)c1
[21] Cc1ccc(C)c(S(=O)(=O)/N=C(\c2ccccc2)N(C)C)c1
[22] O=C(CCSc1ccc(Cl)cc1)NCc1ccncc1
[23] Cc1[nH]c2ccccc2c1/C=C/c1nc2ccccc2c(=O)n1CCCO
[24] COC(=O)c1sc(NC(=O)COc2ccc(OC)cc2)c(C#N)c1C
assay / entry,19,20,21,22,23,24
HCMV NEC inh,-7,-41,x,-17,20,-13
Sa growth 42C,109,56,105,90,x,102
Sa growth 42C second temp,96,31,77,84,x,91
GIV-Gai inh,x,108,108,x,106,x

# 4 compounds already listed, ordered by SMILES length, low to high:
[20] c1coc(C2Nc3cccc4cccc(c34)N2)c1
[24] COC(=O)c1sc(NC(=O)COc2ccc(OC)cc2)c(C#N)c1C
[23] Cc1[nH]c2ccccc2c1/C=C/c1nc2ccccc2c(=O)n1CCCO
[19] CN1CCN(S(=O)(=O)c2ccc(Oc3ccc(Oc4ccccc4)cc3)nc2)CC1
assay / entry,20,24,23,19
HCMV NEC inh,-41,-13,20,-7
Sa growth 42C,56,102,x,109
Sa growth 42C second temp,31,91,x,96
GIV-Gai inh,108,x,106,x

# The results go on.
[25] CCCNC(=O)c1cc(CCC)on1
[26] N#C/C(=N\Nc1cccc(Cl)c1)C(=O)c1ccco1
[27] O=C(NCCn1cc(SCc2ccc(F)cc2)c2ccccc21)c1c(F)cccc1F
[28] FC(F)(F)c1cccc(-c2ccc(-c3csnn3)o2)c1
[29] CCCN1C(C(=O)c2ccccc2)=C(OC(=O)COc2ccccc2)c2ccccc2S1(=O)=O
[30] CCN1CCC(N(Cc2ccco2)C(=O)Nc2cccc(C(F)(F)F)c2)CC1
assay / entry,25,26,27,28,29,30
HCMV NEC inh,18,-32,-9,6,-24,x
Sa growth 42C,89,1.8*,101,84,109,101
Sa growth 42C second temp,100,1.7*,90,94,88,83
GIV-Gai inh,109,105,106,x,107,100

[31] N#C/C(=C\Nc1ccccc1Cl)S(=O)(=O)c1ccccn1
[32] Cc1[nH]c(C)c(S(=O)(=O)N2CCC(C(=O)Nc3cc(F)ccc3F)CC2)c1C(=O)N1CCCCC1
[33] Cc1cc(-c2ccc(S(=O)(=O)NCCN3CCCC3)s2)n[nH]1
[34] CCC(C)NC(=O)C1CCN(S(=O)(=O)CC)CC1 (stereo not given)
[35] CC(=O)Nc1ncnc2sc3c(c12)CCCC3
[36] O=C(CN1C(=O)CSC1=O)CN1C(=O)CSC1=O
assay / entry,31,32,33,34,35,36
HCMV NEC inh,-8,-26,-22,x,-16,25
Sa growth 42C,87,x,109,105,98,84
Sa growth 42C second temp,78,x,102,81,88,113
GIV-Gai inh,104,105,102,103,x,106

[37] Cc1ccc(NC(=O)C(=O)NCC(c2ccc3c(c2)OCO3)N2CCOCC2)c(C)c1 (stereo not given)
[38] COc1ccc2c(c1)C(C)CC(C)(C)N2C(=O)CSc1ncn[nH]1 (stereo not given)
[39] CC1(C)Cc2c(sc3nc(SCC#N)n(-c4ccccc4)c(=O)c23)CO1
[40] COc1ccc(C(=O)Nc2cccc3nsnc23)cc1OC
[41] O=C(NCCc1c[nH]c2ccc(F)cc12)c1cn(-c2ccc(F)cc2)nn1
[42] CCSc1nnc(CNc2ccc(F)cc2)n1CC1CCCO1 (stereo not given)
assay / entry,37,38,39,40,41,42
HCMV NEC inh,x,-3,-2,-15,-15,-3
Sa growth 42C,101,102,x,105,x,84
Sa growth 42C second temp,87,94,x,80,x,102
GIV-Gai inh,102,108,106,103,101,102

[43] CCCc1nc2ccc(NC(C)=O)cc2[nH]1
[44] CN(C(=O)COc1ccccc1)c1nc(-c2ccccc2)cs1
[45] O=C1CCC(C(=O)OC(C(=O)Nc2ccc(Cl)c(C(F)(F)F)c2)c2ccccc2)N1 (stereo not given)
[46] O=C(NCc1ccccc1Cl)C1CCn2c(nc3ccccc32)C1 (stereo not given)
[47] COc1ccc(-c2cc(C(F)(F)F)nc(SCCC(=O)Nc3ccc(O)cc3)n2)cc1
[48] CCOc1ccc(-c2nnc(SCC(=O)Nc3cc(C)ccc3OC)o2)cc1
assay / entry,43,44,45,46,47,48
HCMV NEC inh,-12,-17,-27,-30,-36,0
Sa growth 42C,105,122,105,x,82,98
Sa growth 42C second temp,95,88,88,x,90,75
GIV-Gai inh,97,108,x,101,102,100

[49] N#CC(C(=O)OC1CCCCC1)c1nc2ccccc2nc1N1CCCCC1 (stereo not given)
[50] C=CCNC(=O)CN1C(=O)C2CCCCN2c2ccc(C(=O)N3CCCC3)cc21 (stereo not given)
[51] COc1ccc(-c2nc3cc(Cl)ccc3o2)cc1
[52] O=C(COc1ccc(Cl)cc1Cl)OCC(=O)c1ccc(F)cc1
[53] COC(=O)c1c(C)oc2ccc(OC(=O)c3c(C)oc4ccc(OC(C)=O)cc34)cc12
[54] CC1=C/C(=N/OC(=O)c2ccccc2)C=CC1=O
assay / entry,49,50,51,52,53,54
HCMV NEC inh,-12,-25,-11,2,0,-49
Sa growth 42C,95,x,107,119,x,93
Sa growth 42C second temp,84,x,83,102,x,67
GIV-Gai inh,123,103,x,x,100,93

[55] CC(C)(C)NC(=O)CSc1nnnn1-c1ccc(O)cc1
[56] O=C(NCc1ccccc1F)C(=O)NCC(c1ccc2c(c1)OCO2)N1CCOCC1 (stereo not given)
[57] NC1=NN=C(c2ccc3c(c2)OCCO3)CS1
[58] CC(=O)N1N=C(c2c(-c3ccccc3)c3cc(Cl)ccc3[nH]c2=O)CC1c1ccccn1 (stereo not given)
[59] CCS(=O)(=O)N1CCCc2cc(C(=O)Nc3cc([N+](=O)[O-])ccc3C)ccc21
[60] CCCn1nnc2cc(S(=O)(=O)N3CCCC(C(=O)N4CCN(c5ccccn5)CC4)C3)ccc21 (stereo not given)
assay / entry,55,56,57,58,59,60
HCMV NEC inh,8,x,x,-23,-37,-11
Sa growth 42C,67,93,74,x,103,x
Sa growth 42C second temp,87,81,82,x,84,x
GIV-Gai inh,104,98,109,106,97,102

[61] COc1ccc(/C=N/C(=S)NN)cc1
[62] Cc1ccc(S(=O)(=O)Nc2ccc(C(=O)Nc3cc(C)on3)cc2)cc1
[63] Cc1ccc2nc(-c3ccc(NC(=O)COc4ccccc4)cc3)sc2c1
[64] CN(C)c1nc(OCC(F)(F)F)nc(N(c2ccccc2)c2ccccc2)n1
[65] Cn1c(=O)nc2n(-c3ccc(Cl)c(Cl)c3)c3ccccc3cc-2c1=O
[66] COc1cccc(/C=C2/SC(=S)N(CCC(=O)Nc3c(C)n(C)n(-c4ccccc4)c3=O)C2=O)c1
assay / entry,61,62,63,64,65,66
HCMV NEC inh,-36,-10,-53,-11,x,-13
Sa growth 42C,77,121,94,105,102,x
Sa growth 42C second temp,89,93,88,82,88,x
GIV-Gai inh,x,102,106,107,97,104

# Ordered by the number under GIV-Gai inh (largest number first): 3 of the compounds above.
No.	Compound	GIV-Gai inh
63	Cc1ccc2nc(-c3ccc(NC(=O)COc4ccccc4)cc3)sc2c1	106
62	Cc1ccc(S(=O)(=O)Nc2ccc(C(=O)Nc3cc(C)on3)cc2)cc1	102
65	Cn1c(=O)nc2n(-c3ccc(Cl)c(Cl)c3)c3ccccc3cc-2c1=O	97

# Following part:
[67] O=C(CCCC(=O)N1CCN(c2ccccc2F)CC1)c1ccccc1
[68] CCN1C(=O)C(CC(=O)Nc2ccc(OC)cc2)N(CCCN2CCN(c3ccc(OC)cc3)CC2)C1=S (stereo not given)
[69] CCOC(=O)CNC(c1ccccc1)c1cc(Br)ccc1NC(=O)c1cccc(Cl)c1 (stereo not given)
[70] Cc1cccc(-n2c(-c3ccccc3)cn3c4c(=O)[nH]c(=O)n(C)c4nc23)c1
[71] CC(C)(C)C(=O)Nc1ncccc1/C=C1\C(=O)Nc2ccccc21
[72] CC(C)c1ccc(NC(=O)CCNS(=O)(=O)c2ccc3c(c2)oc(=O)n3C)cc1
assay / entry,67,68,69,70,71,72
HCMV NEC inh,-26,4,-18,-5&-15,-24,-22
Sa growth 42C,92,103,91,107,101,94
Sa growth 42C second temp,94,87,82,105,99,71
GIV-Gai inh,99,105,102,113&113,107,104

[73] CCC(=O)N1CCc2cc(Br)cc(S(=O)(=O)CCC(=O)NCCc3cccc(C)c3)c21
[74] O=C(NC1CCCC1)C1CCC(=O)N1Cc1ccc(F)cc1 (stereo not given)
[75] O=C(Cc1ccc(NC(=O)N2CCSc3ncccc32)cc1)NCc1ccccc1Cl
[76] CC(C)C(N)c1cccs1 (stereo not given)
[77] COc1ccc(CCNC(=O)CCCn2c(=O)c3ccccc3n(Cc3ccccc3C)c2=O)cc1OC
[78] CO[C@@H]1[C@@H](OC(N)=O)[C@H](O)[C@H](Oc2ccc3c(O)c(NC(=O)c4ccc(O)c(CC=C(C)C)c4)c(=O)oc3c2C)OC1(C)C
assay / entry,73,74,75,76,77,78
HCMV NEC inh,x,-30,x,-20,2,-21
Sa growth 42C,121,98,87,85,91,-0.4*
Sa growth 42C second temp,86,96,84,84,88,0.1*
GIV-Gai inh,102,101,100,98,104,103

[79] CCN(CC)c1nc(N)nc(N(c2ccccc2)c2ccccc2)n1
[80] CCNC(=O)c1ccc(-c2nc3ccccc3s2)s1
[81] Cc1c(C(=O)OC2CCCC2)[nH]c2c1C(=O)CC(c1ccc(C(C)(C)C)cc1)C2 (stereo not given)
[82] O=S(=O)(Nc1cccc(Br)c1)c1cccs1
[83] CC1CCc2c(nc3ncnn3c2NCCc2ccccc2F)C1 (stereo not given)
[84] COC(=O)c1ccccc1NC(=O)N1CC=C(c2c[nH]c3ccccc23)CC1
assay / entry,79,80,81,82,83,84
HCMV NEC inh,0,-87,-9,x,-20,-3
Sa growth 42C,96,101,108,110,101,x
Sa growth 42C second temp,98,93,88,67,80,x
GIV-Gai inh,x,x,105,108,100,112

[85] CC1CC(C)CN(C(=O)c2cc(Nc3cccc(C(F)(F)F)c3)nc3ccccc23)C1 (stereo not given)
[86] O=C(NCc1n[nH]c(=S)n1-c1cccc(Cl)c1)c1ccccc1
[87] CCCNS(=O)(=O)c1ccc(Cl)c(C(F)(F)F)c1
[88] CCc1ccc2oc(C(=O)NCC(c3ccc(C(C)(C)C)cc3)N3CCOCC3)cc(=O)c2c1 (stereo not given)
[89] Nc1ccc2nc(CN3CCOCC3)[nH]c2c1
[90] CN1/C(=C/C=N/n2cnnc2)C(C)(C)c2ccccc21
[91] Cn1c(=O)oc2cc(S(=O)(=O)N3CCCC(C(=O)N4CCN(c5ccc(Cl)cc5)CC4)C3)ccc21 (stereo not given)
[92] Nc1nc2cc(S(=O)(=O)N3CCCC3)ccc2o1
assay / entry,85,86,87,88,89,90,91,92
HCMV NEC inh,x,-20,5,-15,2,20,0,3
Sa growth 42C,94,87,101,x,92,93,91,86
Sa growth 42C second temp,83,75,91,x,86,98,29,89
GIV-Gai inh,101,100,x,110,97,x,112,x

# Assay outcomes deposited in PubChem BioAssay by ICCB-Longwood Screening Facility, Harvard Medical School.

# No enrichment for hits; 0.83% or so of the library scored in one or more.
